Source: PubChem (several laboratories)
HSV replic up = increases HSV replication in cells. HSV replication augmentation in cells, fold increase. maximum fold increase. 0.005% of 220,000 active;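 active means peak rise of 1.5-fold or more in the series; inconclusive means self-fluorescent or not available for retest; tested in PC3 cells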;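 further: first round at 10 µM; read as green reporter fluorescence; hits show the peak of a series up to 25 µM; 1 = signal of infected wells without compound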
GALR2 ag = agonists of human galanin receptor 2 (GALR2) | O43603 | GALR2-expressing cells, agonist activation read-out | activation, %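 (tested at 5 µM)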 | 0.48% of 140,000 active;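 active means above mean plus 3 SD of all compounds, about 5% in these data, not always enough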;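 further: 0% = vehicle buffer wells and 100% = reference agonist at full effect; tested in CHO reporter cells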
RGS16-Gao HTS = modulates binding between human RGS16 and Galphao | O15492+P09471 | bead-based flow cytometry RGS16-Galphao binding, fluorescence; actives lie on both sides | binding response (% of control), % at 10 µM | 0.38% of 220,000 active | AID 1441;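 active means below 25% or above 175%, edge rows of some plates excepted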;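 further: Galphao activated by GDP with aluminum fluoride before binding; 100% = wells without compound and 0% = beads without RGS; some results beyond the cut were filed as inactive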
Insulin prom inh = TRM-6 insulin promoter activity inhibition. TRM-6 cells (human fetal islet line), insulin promoter-eGFP reporter, imaging; reporter expression induced with tamoxifen. inhibition, % at 2 µM. 0.9% of 130,000 active;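 active means inhibition above the mean plus 3 SD, with well images judged a real hit on visual review, cut at about 60% in these data, passing the limit was not always enough; inconclusive means inhibition over the cutoff but images rejected on review; inactive means inhibition not above the cutoff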
PKD1 inh = blocks activity of human protein kinase D1; Q15139; PKD1 kinase fluorescence polarization assay; inhibition, %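 (about 10 µM by stock and volumes)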; 0.056% of 200,000 active;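 active means inhibition of 50% or more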;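 further: controls were vehicle for no effect and a reference inhibitor for full effect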
Target sequence (Q15139 whole entry, looked up): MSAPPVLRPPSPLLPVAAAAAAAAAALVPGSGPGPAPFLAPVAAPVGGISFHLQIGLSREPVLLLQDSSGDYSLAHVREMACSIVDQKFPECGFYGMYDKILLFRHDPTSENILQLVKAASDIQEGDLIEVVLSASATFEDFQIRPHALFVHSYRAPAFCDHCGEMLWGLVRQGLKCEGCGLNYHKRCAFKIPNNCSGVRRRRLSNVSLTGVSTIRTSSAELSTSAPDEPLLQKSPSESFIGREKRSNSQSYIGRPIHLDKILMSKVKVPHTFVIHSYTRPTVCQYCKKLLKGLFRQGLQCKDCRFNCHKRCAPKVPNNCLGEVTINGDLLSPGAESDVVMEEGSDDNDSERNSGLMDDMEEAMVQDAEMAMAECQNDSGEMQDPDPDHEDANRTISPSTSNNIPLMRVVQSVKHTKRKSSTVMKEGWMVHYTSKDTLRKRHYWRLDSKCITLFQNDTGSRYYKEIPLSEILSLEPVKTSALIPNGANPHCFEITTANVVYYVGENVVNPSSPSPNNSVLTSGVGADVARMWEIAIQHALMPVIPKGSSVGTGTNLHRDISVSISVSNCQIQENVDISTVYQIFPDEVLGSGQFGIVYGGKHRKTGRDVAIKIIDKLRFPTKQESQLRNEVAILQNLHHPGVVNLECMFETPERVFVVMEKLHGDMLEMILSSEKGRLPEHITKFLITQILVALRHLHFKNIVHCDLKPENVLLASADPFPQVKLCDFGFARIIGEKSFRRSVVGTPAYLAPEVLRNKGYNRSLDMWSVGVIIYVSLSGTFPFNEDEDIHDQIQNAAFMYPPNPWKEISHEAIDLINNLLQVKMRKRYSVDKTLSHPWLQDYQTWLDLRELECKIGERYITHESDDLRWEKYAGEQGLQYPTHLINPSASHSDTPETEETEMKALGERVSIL
Insulin prom inh cell count = further read-out of Insulin prom inh, marked with its call; normalized cell count, %; measured here: cell count, toxicity; reference of the scale not given here;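 cells exposed to compound for 48 h; stained nuclei by imaging scaled within each plate; lower means fewer cells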
HSV replic up primary fold = recorded beside HSV replic up, whose call it bears; fold increase; compound at 10 µM; measured here: primary screen fold increase 10 uM; tested in PC3 cells;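 GFP signal in the first replicate; 1 = infected wells without compound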
Active calls of the source: *; i = inactive; ? = inconclusive; nt = not tested or not shown; & = joins results of further samples. Not all compounds are listed; rates above refer to the full screens.

SMILES	HSV replic up	HSV replic up primary fold	GALR2 ag	RGS16-Gao HTS	Insulin prom inh	Insulin prom inh cell count	PKD1 inh
CCOC(=O)C1C2c3ccccc3O[C@@]1(C)N=C1SCC(=O)N12 (stereo partly drawn)	i	0.9	-0.4	101	nt	nt	-1
CN1CCN(c2cc(N3CCCC3)c([N+](=O)[O-])cc2F)CC1	i	0.88	-2.5	111	-33	88	12
CN1CC=C(c2c[nH]c3ccccc23)CC1	i	0.96	-0.6	97	nt	nt	-4
CN1CCN(c2cc(N3CCCCCC3)c(F)cc2[N+](=O)[O-])CC1	i	0.64	0.9	109	-48	153	-5
CCCCCCC(=O)N/N=C/c1c(O)n(C2CC2)c(=S)[nH]c1=O	i	0.93	nt	93	nt	nt	nt
CC(=O)c1ccc(OC(NC(=O)c2ccco2)C(Cl)(Cl)Cl)cc1 (stereo not drawn)	i	0.94	-0.4	97	10	101	-16
COc1cc(/C=C/c2nc3ccccc3c(=O)n2-c2cccc(O)c2)ccc1O	?	nt	nt	99	nt	nt	nt
c1ccc(CN2CCN(Cc3ccc4c(c3)OCCO4)CC2)cc1	i	1	-2.6	91	nt	nt	7
O=C(CN1CCOCC1)Nc1ccc(Br)cc1C(=O)c1ccccc1	i	0.82	-1.9	97	-100	74	4
COc1ccccc1[As](=O)(O)CC(O)COc1ccc(Cl)cc1Cl (stereo not drawn)	i	0.95	nt	101	nt	nt	nt
COc1ccc(-c2nc3ccccc3c(=O)n2-c2nccs2)cc1	i	0.95	0.3	91	60	44	-9
OC(c1ccncc1)(c1ccc(F)cc1)c1ccc(F)cc1	i	0.92	-0.7	115	nt	nt	-5
CCN(CC)CCN=Cc1c(O)n(CCc2ccccc2)c(=O)[nH]c1=O	i	0.97	-0.9	97	nt	nt	0
COc1ccc(Cn2c(N)c(C(=O)NCc3ccco3)c3nc4ccccc4nc32)cc1OC	nt	nt	2.4	105	nt	nt	8
C=CCn1c(O)c(C(C)=NC2CCN(Cc3ccccc3)CC2)c(=O)[nH]c1=O	i	0.87	nt	92	nt	nt	nt
COc1cc(OC)c(OC)cc1/C=C1\C(=O)NC(=O)N(Cc2ccccc2)C1=O	i	0.94	nt	114	nt	nt	2
CCOP(=O)(Cc1ccc(C(=O)CC)o1)OCC	i	1.1	nt	97	nt	nt	nt
CC(C)CCN1CCN(Cc2c(F)cccc2Cl)CC1CCO (stereo not drawn)	i	1.1	nt	103	nt	nt	1
CC(=NC1CCN(Cc2ccccc2)CC1)c1c(O)n(C)c(=O)n(C)c1=O	i	0.74	-1.6	94	nt	nt	-3
O=C(/C=C/c1ccc2c(c1)OCO2)c1c(O)n(CCC2=CCCCC2)c(=O)[nH]c1=O	i	0.85	-1.5	103	23	132	0
Cc1nc2ccccc2c(=O)n1-c1ccc(Br)cc1[N+](=O)[O-]	i	0.99	nt	111	-14	113	0
O=C1NC(=O)C(=Cc2cc3c(cc2[N+](=O)[O-])OCO3)C(=O)N1	i	0.96	nt	97	13	135	2
COc1ccc(C(=O)Oc2cccc3cccnc23)cc1S(=O)(=O)N1CCOCC1	i	0.78	nt	97	53	124	3
O=C(O)c1c[nH]c2ccc(S(=O)(=O)N(CCCl)CCCl)cc12	i	0.85	-0.6	102	nt	nt	-1
CCC(=NCCO)c1c(O)n(-c2ccccc2)c(=O)[nH]c1=O	i	1	-2.3	98	-50	150	-3
CC/C(=N\Nc1ccccc1)c1c(O)n(-c2ccc(OC)cc2)c(=O)[nH]c1=O	i	1	nt	104	nt	nt	nt
CC(C)N1C(=O)NC(=O)C2(Cc3cc([N+](=O)[O-])ccc3N(C)C2c2ccccc2)C1=O (stereo not drawn)	i	1.1	-0.1	96	-81	108	4
COc1ccc(CCC(C)NCCc2ccccc2)cc1 (stereo not drawn)	i	0.69	-2.9	102	16	84	-4
COc1ccc(CCC(=O)N2CCC3(CC2)OCCO3)cc1	i	0.9	-1.7	111	-480	98	-8
CC(C)CCOC(=O)c1c(N)n(CC2CCCO2)c2nc3ccccc3nc12 (stereo not drawn)	i	0.85	0.9	100	7	93	-3

As entered above.
CCN(CC)CCN=Cc1c(O)n(CCc2ccccc2)c(=O)[nH]c1=O in GALR2 ag = -0.9
CC(C)CCN1CCN(Cc2c(F)cccc2Cl)CC1CCO (stereo not drawn) in RGS16-Gao HTS = 103

Going on with the list:
SMILES	HSV replic up	HSV replic up primary fold	GALR2 ag	RGS16-Gao HTS	Insulin prom inh	Insulin prom inh cell count	PKD1 inh
CCCc1[nH]nc2c1C1(C(=O)N(CC(N)=O)c3ccccc31)C(C(=O)OC)=C(N)O2 (stereo not drawn)	i	0.79	0.3	96	nt	nt	-6
CC(C)(C)NC(=O)C1CC2CCCCC2CN1 (stereo not drawn)	i	1	nt	105	55	123	-2
Cc1ccsc1C(=O)C1CCCN(Cc2cnn(C)c2)C1 (stereo not drawn)	i	1.1	nt	104	nt	nt	-7
CCC(=NCc1ccc(F)cc1)c1c(O)n(C)c(=O)n(C)c1=O	i	0.92	-1.8	104	-38	107	1
CC(Cc1ccc(O)cc1)NCC(O)c1cc(O)cc(O)c1 (stereo not drawn)	i	0.59	nt	98	nt	nt	nt
COc1c2c(cc3c1OCO3)CC[N+](C)=C2	i	0.66	nt	102	nt	nt	-6
O=C1/C(=C\c2ccccc2)C2OCC=C3CN4CCC56c7ccccc7N1C5C2C3CC46 (stereo not drawn)	i	0.69	nt	104	nt	nt	nt
O=[N+]([O-])c1ccc(N2CCCC2)c2ncccc12	i	0.94	nt	97	0	90	-2
COc1ccc(-n2c(O)c(/C(C)=N/N3CCCCCC3)c(=O)[nH]c2=O)cc1	i	1.1	nt	100	nt	nt	nt
Cc1nn(Cc2ccccc2Cl)c(C)c1C(=O)OCC(=O)NC1CCS(=O)(=O)C1 (stereo not drawn)	i	1.1	-1.3	110	33	92	0
O=c1c2ccccc2nc(C[n+]2ccccc2)n1-c1cccc(C(F)(F)F)c1	i	1.1	nt	76	nt	nt	-4
Cc1ccc(-c2nc3ccccc3c(=O)n2-c2nccs2)cc1	i	0.94	-0.1	107	3	59	4
COc1cccc(NP(=O)(Oc2ccc(Cl)cc2)Oc2ccc(Cl)cc2)c1	i	0.71	-0.3	103	-7	57	-6
O=C1CN=C(c2cccs2)c2c(sc3c2CCCC3)N1	i	0.82	-2.1	95	3	120	-6
O=C(N/N=C/c1c(O)n(CCc2ccccc2)c(=O)[nH]c1=O)c1ccccc1O	i	1.1	nt	100	nt	nt	nt
NNC(=O)CN1C(=O)CN=C(c2ccccc2)c2cc(Br)ccc21	i	1.1	nt	106	nt	nt	nt
O=c1[nH]c(=O)n(-c2ccc(Cl)cc2)c(O)c1C=Nc1ccc(S(=O)(=O)Nc2nccs2)cc1	i	1.1	-0.6	106	2	118	-5
Cc1cccn2c(=O)c3c(nc12)N1CCCCCC1C1(C3)C(=O)N(C)C(=O)N(C)C1=O (stereo not drawn)	i	1.1	nt	102	nt	nt	nt
O=C(COc1ccccc1)N1CCN(CC(O)COc2ccccc2)CC1 (stereo not drawn)	i	1.1	-0.3	92	nt	nt	-7
CCN1CCN(S(=O)(=O)c2cnc(Cl)c(Br)c2)CC1	i	0.88	0.5	97	nt	nt	-3
O=C1C2CCCN2C(c2ccc(Cl)cc2)N1c1ccccn1 (stereo not drawn)	i	0.94	-1.9	93	nt	nt	-5
O=P(N[C@@H](c1ccccc1)[C@@H]1C[C@H]1CO)(c1ccccc1)c1ccccc1	i	1.1	-1.1	108	15	87	-10
CCOc1cc(C2C(C#N)=C(N)Oc3c2c(=O)oc2ccccc32)ccc1OC(=O)c1cccs1 (stereo not drawn)	nt	nt	-0.5	99	nt	nt	-11
C1CNC2NCCNC2N1 (stereo not drawn)	i	1.1	-0.7	97	14	173	2
CCCCC(C)C(OC(=O)CC(CC(=O)O)C(=O)O)C(CC(C)CC(O)CCCCC(O)CC(O)C(C)N)OC(=O)CC(CC(=O)O)C(=O)O (stereo not drawn)	i	1	-0.9	103	9	109	-12
O=C(CNC1CCCCC1)N1CCC2(CC1)OCCO2	i	0.66	-2.0	104	i	57	-3
O=P(C(Cl)Cl)(N1CCCCC1)N1CCCCC1	i	1	-1.6	101	-50	171	-3
O=C(COc1ccccc1)c1cn(Cc2ccccc2)c2ccccc12	i	1	-1.1	102	nt	nt	-13
CCCCN1C(=O)NC(=O)/C(=C/c2cnc(SC)nc2)C1=O	i	1	0.8	96	-2	157	-9
COc1cc(C)c(-c2nc(CN3C[C@@H]4C[C@@H](C3)c3cccc(=O)n3C4)c(C)o2)cc1C	i	0.98	nt	96	nt	nt	2

3 structures already listed, sorted by SMILES length, falling:
SMILES	HSV replic up	HSV replic up primary fold	GALR2 ag	RGS16-Gao HTS	Insulin prom inh	Insulin prom inh cell count	PKD1 inh
O=c1c2ccccc2nc(C[n+]2ccccc2)n1-c1cccc(C(F)(F)F)c1	i	1.1	nt	76	nt	nt	-4
O=C(COc1ccccc1)c1cn(Cc2ccccc2)c2ccccc12	i	1	-1.1	102	nt	nt	-13
O=P(C(Cl)Cl)(N1CCCCC1)N1CCCCC1	i	1	-1.6	101	-50	171	-3

Additional entries:
SMILES	HSV replic up	HSV replic up primary fold	GALR2 ag	RGS16-Gao HTS	Insulin prom inh	Insulin prom inh cell count	PKD1 inh
Cc1ccc(-n2c(C)cc(/C=C3/C(=O)NC(=O)N(C)C3=O)c2C)cc1	i	0.95	-2.3	105	23	112	-1
Cc1ccc2c(c1)N(CCC(=O)N1CCC3(CC1)OCCO3)C(=O)C(C)O2 (stereo not drawn)	i	0.76	-0.9	96	12	126	-6
O=C(Nc1cccc(Cl)c1)c1c(O)c2c(n(Cc3ccccc3)c1=O)CCCC2	i	1.1	-0.9	104	33	82	4
CCC(=NCCO)c1c(O)n(C2CCCCC2)c(=O)[nH]c1=O	i	0.93	-0.6	103	-18	127	-9
O=c1[nH]c(=O)n(-c2cccc3ccccc23)c(O)c1C=NCCCn1ccnc1	i	0.92	-1.0	105	48	107	-2
Cn1c(O)c(/C=N/N2CCOCC2)c(=O)[nH]c1=S	i	0.98	nt	93	nt	nt	nt
COC(=O)N1C(c2ccccc2)C1c1ccccc1 (stereo not drawn)	i	1	nt	104	nt	nt	-5
COc1ccc(OC)c2c1CCC1NCCOC21 (stereo not drawn)	nt	nt	-0.1	105	50	112	-3
CCc1nc2ccc(Br)cc2c(=O)n1-c1ccccc1C(F)(F)F	i	1	2.4	nt	2	101	-7
C/C(=N\N1CCCCCC1)c1c(O)n(-c2ccccc2)c(=O)[nH]c1=O	i	0.9	-0.4	102	3	110	-5
C=CCOC(=O)C1=C(C)OC(N)=C(C#N)[C@@]12C(=O)N(CC(N)=O)c1ccccc12	i	0.95	-0.2	100	nt	nt	1
O=C1NC(=O)C(=Cc2ccc(OCC(=O)N3CCOCC3)cc2)C(=O)N1	i	1	-1.4	86	24	107	-16
COc1cc(N2CCOCC2)ccc1/C=C1\C(=O)NC(=O)N(Cc2ccc3c(c2)OCO3)C1=O	i	1	nt	99	21	74	-11
CCCC/C(C)=C/[C@@H](NP(=O)(c1ccccc1)c1ccccc1)c1ccccc1	i	0.83	-0.9	108	-18	132	-13
Nc1ccc(C(=O)N/N=C2/CN3CCC2CC3)cc1	i	1.1	-0.4	nt	0	111	6
COc1ccccc1N1C(=O)NC(=O)/C(=C/c2ccc([N+](=O)[O-])s2)C1=O	i	0.98	nt	87	nt	nt	nt
CCN(CC)CCN=Cc1c(O)n(Cc2ccccc2)c(=O)[nH]c1=O	i	1.2&1.2	-1.8	100&96	22	26	-1
O=C1NC(=O)C(CCc2ccncc2)(CCc2ccncc2)C(=O)N1CCc1ccc(F)cc1	i	0.96	nt	112	9	131	-3
COc1ccc(C2SCC(=O)Nc3c2c(=O)[nH]n3C2CCCCCC2)cc1OC (stereo not drawn)	i	0.96	-1.4	84	-4	93	-4
CCOc1cccc(N2C(=O)CC(=O)NC2=O)c1	i	1	-1.9	103	-58	146	-3
O=C(Nc1ccc(Cl)cc1)Nc1nccs1	i	0.64	0.3	101	63	104	-8
O=C(N/N=C/c1c(O)n(Cc2ccccc2)c(=O)[nH]c1=O)c1ccccc1	i	0.99	-0.1	102	nt	nt	-3
FC(F)(F)c1ccc(CN2CCNCC2)cc1	i	0.95	nt	104	nt	nt	-2
CC(C)CNC(=O)c1c(N)n(Cc2ccco2)c2nc3ccccc3nc12	i	1.3	17*	98	-43	78	-2
CCCCNC(=O)CN1C(=O)CN=C(c2ccccc2)c2ccccc21	i	0.87	nt	90	nt	nt	nt
O=C(O)[C@H]1NC[C@H]2C[C@H]21	i	0.97	nt	111	nt	nt	-2
N#CCCn1cc(C=C2C(=O)NC(=O)NC2=O)c(-c2ccccc2)n1	i	0.93	nt	100	-9	112	3
